NS1 inh – blocks influenza NS1 protein function. actives 0.4% (n = 270,000). S. cerevisiae slowed by influenza A NS1, growth recovery by OD600. AID 2326. Potency, µM (series often up to 46.1 µM), for the others: top-dose activity, positive = more growth; active means well fitted rising curve with a large enough effect; inconclusive means small, poorly fitted or top-dose-only effect; inactive means no such curve, though single readings can be large or run the other way; further: nearly all actives have a fitted effect of over 50% in size
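S. cerevisiae expressing influenza A NS1, grown in glucose, washed, then diluted 1:100 into pH 6.0 -URA galactose medium with 23 nl compound. Growth recovery read as OD600; NS1-free strain serves as control.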
MARV entry inh – blocks Marburg virus binding to or entry into cells | Potency, µM (series often up to 37.8 µM), inactives show at the highest dose activity change, negative = inhibition, most hits filed as inhibitors | actives 1.8% (n = 300,000) | Marburg virus pseudotyped entry inhibition, cell reporter; control for the full effect not named in the record; about a third of the inactives were read at about 46 µM; active = well fitted inhibition curve with a large enough effect; inconclusive = small, poorly fitted or top-dose-only effect, or effect the other way; inactive = flat fitted curve, though single readings scatter; tested in HEK293 cells; about a fifth of its hits are not listed in these tables; further: on the % scale 0 is the no-effect control and ±100 the full control effect; luciferase read-out
Lassa entry inh – inhibitors of Lassa virus binding or cell entry; Lassa virus pseudotype entry inhibition, cell reporter; control for the full effect not named in the record; Potency, µM (highest dose often 37.9 µM), without a hit: at the highest dose activity change, negative = inhibition, usual class: inhibitors; actives 1.2% (n = 300,000); active means well fitted inhibition curve with a large enough effect; inconclusive means small, poorly fitted or top-dose-only effect, or effect the other way; inactive means flat fitted curve, though single readings scatter; tested in HEK293 cells; further: on the % scale 0 is the no-effect control and ±100 the full control effect; nearly all actives have a fitted effect of over 50% in size; luciferase read-out
2A StopGo – FMDV 2A StopGo reporter, luciferase signal; Potency, µM (highest dose often 57.9 µM), inactives show at the top dose signal change, negative = less light; actives 1.2% (n = 410,000); human cells with a luciferase reporter of 2A StopGo recoding; control for the full effect not named in the record; active = well fitted falling curve with a large enough effect; inconclusive = small, poorly fitted or top-dose-only effect; inactive = no such curve, though single readings can be large or run the other way; tested in HEK293T cells; further: on the % scale 0 is the no-effect control and ±100 the full control effect; nearly all actives have a fitted effect of over 45% in size; luciferase light after 4 h
Cruzain inh noDet – inhibitors of Trypanosoma cruzi cruzain without detergent | P25779 | purified cruzain, Z-FR-AMC fluorescence, no detergent | Potency, µM, without a hit: max response, negative = inhibition, usual class: inhibitors | actives 2.3% (n = 200,000) | AID 1476;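 further: plate controls were enzyme without inhibitor for no effect and buffer without enzyme for full effect; nearly all actives have a fitted effect of over 40% in size; top concentration of the series not given in the record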
Target sequence (P25779 123-467 limits assumed): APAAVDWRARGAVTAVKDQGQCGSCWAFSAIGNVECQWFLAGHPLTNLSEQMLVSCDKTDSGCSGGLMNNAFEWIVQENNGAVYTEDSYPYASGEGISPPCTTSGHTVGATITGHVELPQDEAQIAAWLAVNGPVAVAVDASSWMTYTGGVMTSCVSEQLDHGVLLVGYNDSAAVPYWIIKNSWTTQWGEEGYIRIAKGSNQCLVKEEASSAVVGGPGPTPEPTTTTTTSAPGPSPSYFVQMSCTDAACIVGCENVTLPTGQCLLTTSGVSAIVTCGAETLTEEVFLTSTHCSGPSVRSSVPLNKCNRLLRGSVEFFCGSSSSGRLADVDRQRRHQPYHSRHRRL
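Purified cruzain at 1.5 nM, pre-incubated 15 min with compound at room temperature in 100 mM sodium acetate pH 5.5, 5 mM DTT, 0.00005% Triton X-100. Reaction started with 2 uM Z-FR-AMC; AMC fluorescence increase over 60 s gives rate.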
SARS PLpro yeast – SARS-CoV PLP inhibition in yeast | Potency, µM (titrated, usually from 32.9 µM), without a hit: top-dose activity, positive = growth rescue | actives 0.19% (n = 330,000) | AID 485353 | S. cerevisiae expressing SARS-CoV PLpro, growth rescue; control for the full effect not named in the record; active means well fitted rising curve with a large enough effect; inconclusive means small, poorly fitted or top-dose-only effect; inactive means no such curve, though single readings can be large or run the other way; further: 0% is about no effect; nearly all actives have a fitted effect of over 55% in size; growth read by luminescence after 48 h
Cruzain Triton – blocks cruzain activity in presence of Triton detergent | actives 0.43% (n = 200,000) | purified cruzain, Z-FR-AMC fluorescence, 0.01% Triton | Potency, µM, inactives show max response, negative = inhibition, actives largely listed as inhibitors | P25779 | AID 1478;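 further: plate controls were neutral wells for no effect and buffer without enzyme for full effect; nearly all actives have a fitted effect of over 40% in size; top concentration of the series not given in the record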
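Read-out: AMC fluorescence (360 nm excitation, 450 nm emission), four reads over 2 min, first-to-third difference used. Conditions: cruzain 1.5 nM, Z-FR-AMC 2 uM, pH 5.5 acetate, 5 mM DTT, 0.01% Triton X-100.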
RE007 growth inh – less growth of the S. pombe RE007 Vpr strain; S. pombe RE007 Vpr strain, BacTiter-Glo ATP luminescence, 24 h; control for the full effect not named in the record; Potency, µM (series often up to 92.2 µM), without a hit: at the highest dose activity change, negative = less growth; actives 0.21% (n = 360,000); AID 651644; active = well fitted falling curve with a large enough effect; inconclusive = small, poorly fitted or top-dose-only effect; inactive = no such curve, though single readings can be large or run the other way;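 further: on the % scale 0 is the no-effect control and ±100 the full control effect; nearly all actives have a fitted effect of over 50% in size; the assay follows cell death caused by Vpr and the record does not say whether a fall means rescue or toxicity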
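Fission yeast RE007 carrying one integrated HIV-1 vpr copy, seeded at OD 0.01 in PMG+AL medium with 23 nL pinned compound. Grown 24 h at 30 degrees; viability read by BacTiter-Glo luminescence after 5 min.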
Numbers without * were called inactive; ? = inconclusive; · = no result given; & = joins results of further samples; [ ] = dose if it differs, or a comment. Unless noted, the call rests on the fitted dose curve; in most records, active means well fitted curve in the direction sought with a large enough effect; inconclusive means small, poorly fitted or top-dose-only effect, or another doubt; inactive means no such curve, though single readings can be large; an effect the other way counts as inactive or inconclusive. Potency means the concentration at half of the fitted maximal effect. Not a hit list; any-hit rate near 4.7%.

molecule | NS1 inh | MARV entry inh | Lassa entry inh | 2A StopGo | Cruzain inh noDet | SARS PLpro yeast | Cruzain Triton | RE007 growth inh
CCN(CC)C(=O)c1cnn(-c2ccccc2)c1NC(=O)c1ccccc1F | 11.4% | -1.4% | -15.2% | 4.8% | -5.2% | -13.9% | 2.0% | -2.5%
Cn1c(SCC(=O)NCc2ccc(F)cc2)ncc(C(=O)Nc2ccccc2)c1=O | · | ? | 10.6% | ? | · | 2.6% | · | 28.4%
CCOc1ccc(NC(=O)N2CCN(C(=O)c3ccco3)CC2)cc1 | -42.2% | 3.0% | 2.7% | -10.4% | · | -1.4% | · | 5.6%
Cc1ccc2nsnc2c1NC(=O)c1cccnc1Cl | -2.7% | 1.4% | 9.3% | -6.8% | -2.4% | -3.8% | -3.1% | -4.4%
CC1(C)OC(=O)C(=CNCC(=O)NCC(=O)O)C(=O)O1 | -0.6% | 9.8% | 2.3% | 2.2% | 1.8% | 2.4% | -0.5% | 1.8%
COc1ccc(NC(=O)Cn2nnc(-c3ccccc3NC(=O)c3cccs3)n2)cc1 | -2.7% | ? | ? | -18.0% | -7.3% | 3.7% | 1.2% | -0.6%
CCOc1ccccc1CNC(=O)c1cc2cc(S(=O)(=O)N3CCCCC3)ccc2n1C | · | · | ? | -16.4% | -29.3% | · | -2.4% | ·
CNCc1ccccc1OCC(=O)Nc1ccccc1 | 5.8% | 12.1% | 3.4% | 63.0%[activator] | -13.8% | 10.3% | -5.8% | 8.7%
CCOc1ccc(/C=C/C2=CC(C)(C)NC(=S)N2)cc1 | · | 11.7%[46.1 µM] | -10.9% | -9.6% | · | 1.6% | · | -17.0%
CCOc1ccc(S(=O)(=O)N2CCN(c3ccc(C)cc3C)CC2)cc1 | -57.6% | · | · | ? | ? | -12.1% | -4.8% | 0.7%
COc1ccc(NC(=O)c2cc(-c3ccc(C)cc3O)n[nH]2)c(OC)c1 | 1.2% | -4.6% | ? | 2.8% | · | -0.8% | · | -23.2%
CCOC(=O)CNC(=O)O[C@H]1C(=O)c2ccc(OC)cc2O[C@@H]1c1ccc2c(c1)OCO2 | · | 17.2%&17.2%&17.2%[14.2 µM] | ? | · | -1.6% | · | -0.1% | ·
Fc1ccccc1Cn1c2[n+](c3ccc(C(F)(F)F)cc31)CCCCC2 | · | -4.7%[46.1 µM] | -11.4%[46.1 µM] | -17.6% | · | -1.7% | · | -6.4%
CN(C)c1ccc(N=Nc2ccccc2C(=O)OCC(=O)N2CCCCCC2)cc1 | -18.7% | -6.0% | 7.4% | 27.8% | 6.8% | -42.9% | -12.6% | -4.9%
Cn1cc(S(=O)(=O)NC(c2ccccc2)c2ccccc2)c(=O)n(C)c1=O | -1.6% | 6.2%[46.1 µM] | -2.4% | 13.8% | · | 1.3% | · | 39.7%
CC(C)=CCc1c(O)ccc(C(=O)Cc2ccccc2)c1O | -166.7% | 1.8% | -7.6% | ? | 0.3% | -16.9% | -5.8% | 35.5µM*
CC(NS(=O)(=O)c1cc2c3c(c1)CCC(=O)N3CCC2)c1ccccc1 (stereo not given) | · | -15.0% | -24.2%[46.1 µM] | -13.8% | · | -1.6% | · | 1.7%
Cc1ccc(Nc2nc(N)nc(CSC(=S)N3CCN(c4ccccc4)CC3)n2)cc1 | ? | -0.6% | -5.1% | 0.0% | -24.6% | -1.1% | 0.0% | -12.3%
COc1ccc2cc(S(=O)(=O)N3CCCC3)ccc2c1 | -10.9% | ? | -2.3%[46.1 µM] | -23.3% | · | -1.5% | · | 4.8%
CCCCC(=O)NCCc1cc2c(OC)ccc(OC)c2[nH]c1=O | 4.5% | -6.0% | 10.6% | 0.0% | -6.9% | -2.8% | -2.4% | 1.0%
NS(=O)(=O)c1ccc(CCNC(=O)c2ccc(NS(=O)(=O)c3ccc4[nH]c(=O)[nH]c4c3)cc2)cc1 | · | ? | 0.7% | -9.0% | · | 1.8% | · | 18.7%
Cc1ccc(C(=O)NCCOc2ccc(Cl)cc2)cc1 | -44.1% | ? | 28.0%[46.1 µM] | 17.1% | · | 0.7% | · | 10.8%
COCCNc1nc(-c2cc3ccccc3o2)cs1 | -1.0% | ? | 3.98µM* | 0.0% | 0.8% | -15.4% | -4.7% | -16.8%
COc1cc(NC(=S)Nc2ccccn2)cc(OC)c1 | 0.8% | 2.1% | 5.3% | 12.1% | 3.7% | 27.1% | 0.7% | -10.5%
O=C(Cn1nc(Cl)nc1Cl)c1ccccc1 | 3.7% | 22.0%[46.1 µM] | 1.7%[46.1 µM] | -8.3% | · | -1.8% | · | -17.1%
CCCc1cc(=O)[nH]c2nnc(SC(C)CC)n12 (stereo not given) | · | · | 23.1%[46.1 µM] | -6.7% | -7.6% | · | -1.3% | ·
CCCOC(=O)c1ccc(NC(=O)CC(C)(C)C)cc1 | -1.8% | · | · | 38.0%[activator] | · | 1.0% | · | 5.8%
Cc1cccc(NC(=O)CN2C(=O)N/C(=C/c3cc(C)n(C)c3C)C2=O)c1 | · | -24.7%[46.1 µM] | · | -0.3% | · | -1.9% | · | -12.9%
CCN(CC)c1nc2ccccc2nc1C(C#N)C(=O)NCCc1ccccc1 (stereo not given) | 6.2% | -10.0% | -19.3% | 0.9% | ? | -5.2% | -9.3% | -6.8%
COc1cccc(NC(=O)Nc2cc(C)ccc2F)c1 | -18.4% | -4.6% | ? | 40.3%[activator] | 8.9% | 23.4% | -6.9% | -11.0%
COCCNC(=O)COC(=O)/C=C/c1cnc2ccccc2n1 | -11.1% | 25.4% | 6.1% | 39.9%[activator] | -7.7% | -7.8% | -8.7% | 11.1%
CN1C(=O)C(C)(C)c2cc(S(=O)(=O)N3CCCC3C(=O)Nc3ccc(F)cc3)ccc21 (stereo not given) | · | · | -3.7%[46.1 µM] | -9.3% | 2.6% | · | -1.5% | ·
CCOCCn1c(CN2CCN(c3ccccc3)CC2)nc2c1c(=O)n(C)c(=O)n2C | · | 24.3% | 1.8% | ? | · | · | · | 21.4%
N#CCCC12CCCCC1=Nc1ccccc12 (stereo not given) | -1.8% | -20.1% | 1.1% | 6.9% | 0.4% | 1.8% | -0.1% | 19.1%
CC(=O)c1c(C)n(C)c2ccc(OC(=O)c3ccco3)cc12 | -14.6%&-11.3% | 26.5%&26.5% | 6.5% | 4.8% | 12.3% | -0.5% | 3.1% | -12.6%
O=S(=O)(NCC1CCCO1)c1cccc(C(F)(F)F)c1 (stereo not given) | -16.4% | 2.5% | 8.6% | 0.0% | 3.0% | 2.8% | 7.4% | 6.3%
O=C(c1sc2cccc(Cl)c2c1Cl)N1CCN(CCc2ccccn2)CC1 | -25.4% | · | · | -26.5% | · | -3.4% | · | -8.3%
COc1cccc(/C=C2/C(=O)NN(c3ccc(F)cc3)C2=O)c1 | 7.7% | 3.4% | -0.7% | ? | · | -0.4% | · | 24.5%
COCCNC(=S)N1CCN(Cc2ccc3c(c2)OCO3)CC1 | 11.0% | 21.6% | 13.6% | -14.4% | · | -4.1% | · | 1.7%
CCn1c(SCC(=O)Nc2nc3ccc(C)cc3s2)nc2c(c1=O)SC(C)C2 (stereo not given) | -48.0% | ? | -27.5% | ? | ? | -4.6% | -3.0% | 13.0%
O=C(COC(=O)C1CCCC1)Nc1cccc(Cl)c1Cl | · | -0.2%[46.1 µM] | 21.4%[46.1 µM] | 45.4% | · | -11.8% | · | -25.4%
O=C(Cn1cnc2ccccc2c1=O)c1ccc(Br)cc1 | -42.8% | ? | ? | -29.1% | · | 0.6% | · | 18.3%
CCOc1cc(N2CCOCC2)c(OCC)cc1NC(=O)CSc1cccc[n+]1[O-] | 6.0% | 3.4%&3.4% | -5.4% | 7.3% | -1.0% | 14.7% | 0.9% | 5.0%
Cn1ncc(Br)c1C(=O)Nc1ccc(Cl)cn1 | -0.5% | 23.4% | 11.0% | 33.2%[activator] | -14.2% | 1.7% | 2.4% | -12.4%
O=C(COc1ccc(Br)cc1)N1CCN(S(=O)(=O)/C=C/c2ccccc2)CC1 | -17.5% | ? | ? | -31.4% | 10.5% | -4.6% | -4.1% | -3.9%
COc1cc(CNC(C)c2ccccc2)cc(Br)c1OCc1ccccc1 (stereo not given) | -31.8% | 7.94µM* | ? | 0.0% | · | -2.8% | · | -10.7%
CCOc1ccc(NC(=O)C(CC)NC(=O)c2ccccc2CO)cc1 (stereo not given) | -0.8% | 25.3% | 10.7% | -0.9% | -4.6% | -5.8% | 1.0% | -7.9%
CCOC(=O)c1ccc(NS(=O)(=O)c2ccc3[nH]c4c(c3c2)CCCCC4)cc1 | · | · | -18.7%[46.1 µM] | 24.2% | ? | · | -4.1% | ·
O=C(Nc1ccc(Cl)cc1)c1cccc(OC(=S)N2CCOCC2)c1 | -11.8% | ? | ? | ? | · | -3.3% | · | 3.8%
COC(=O)N/N=C/c1ccc(OC(=O)c2ccco2)c(OC)c1 | 2.2% | -1.7%[46.1 µM] | 22.8% | 14.6% | · | -0.8% | · | -0.6%
CCCCOc1cccc(C(=O)N(Cc2ccccc2)C2CCS(=O)(=O)C2)c1 (stereo not given) | 4.2% | -16.5%[46.1 µM] | -28.8% | 0.0% | · | -1.0% | · | 7.3%
COC(=O)[C@@]1(Cc2ccc(F)cc2)[C@H]2c3cc(C(=O)N(C)C)n(C)c3C[C@H]2CN1C(=O)c1ccccc1 | · | · | · | -19.7% | ? | · | -3.4% | 5.0%
CCCn1nnnc1COc1ccc(C(N)=O)cc1 | 0.5% | · | · | -13.2% | · | 0.3% | · | -6.7%
O=C(Nc1cc(C(F)(F)F)ccc1F)C1CCCC1 | 5.2% | 1.3% | -0.7% | 22.4% | -6.6% | 1.7% | 3.8% | -0.5%
c1ccc(Cn2ccnc2)cc1 | 4.1% | -6.3% | 0.2% | -15.1% | -19.4% | 0.9% | 3.4% | 1.5%[18.4 µM]

From PubChem BioAssay
